Assay outcomes: PubChem, several laboratories
ALR H2O2 inh: inhibitors of human ALR sulfhydryl oxidase, primary screen, biochemical, H2O2 detection, HRP-luminol luminescence, single point. purified ALR, DTT oxidation. inhibition, % (test concentration not listed). actives 3.8% (n = 290,000);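 active means mean and each replicate at 75% or more; inconclusive means only one of the two met; inactive means neither met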;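 further: stock transfer was 7.5 nL into about 7.5 µL; 0% = neutral wells and 100% = wells with inactivated enzyme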
Target sequence (P55789 whole entry, looked up): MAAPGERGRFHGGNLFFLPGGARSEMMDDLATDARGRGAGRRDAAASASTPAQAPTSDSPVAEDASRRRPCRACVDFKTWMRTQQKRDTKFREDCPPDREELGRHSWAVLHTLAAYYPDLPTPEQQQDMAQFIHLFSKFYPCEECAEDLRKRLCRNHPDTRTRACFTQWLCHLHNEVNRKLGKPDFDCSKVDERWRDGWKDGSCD
Ecoli rRNA inh: reduced GFP signal of wild-type E. coli, primary screen, bacterial rRNA inhibitor project, GFP/RFP fluorescence, OD600, single point. GFP signal change (wild-type ribosome), % (test concentration not listed). E. coli WT GFP vs humanized-ribosome RFP mutants, 24 h; active compounds read low; DMSO median 0, no signal -100. actives 1.6% (n = 350,000);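 active means significant combined selectivity score with lowered wild-type GFP, culture density cut under 30%, mutant RFP and density less affected; inactive means any of these conditions unmet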; further: one replicate is shown; some compounds called inactive have numbers as strong as hits
Vif A3G: inhibitors of Vif binding to APOBEC3G peptide, primary screen, biochemical, TR-FRET, GST-Vif 1-94, biotin-A3G peptide, dose response retest (AID 1117319); actives 0.57% (n = 260,000); TR-FRET GST-Vif / biotin-A3G peptide binding; higher % means a stronger effect; test concentration not given here; strong numbers were not always called active; inhibition, %, or IC50 in µM where a hit was titrated;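 active means above the screen mean plus three standard deviations and confirmed in dose response; inconclusive means results disagree or hit not tested in dose response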;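 further: Vif residues 1-94 fused to GST binding biotinylated APOBEC3G peptide 110-148; 0% = full assay without inhibitor and 100% = GST in place of GST-Vif; retest series ran down from 100 µM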
HNF4A DNA FP: change in binding of human HNF4A to DNA, primary screen, biochemical, fluorescence polarization, FITC-DNA. Hepatocyte nuclear factor 4-alpha (Homo sapiens), P41235. 1 h. activity change, % at 10 µM. actives 0.3% (n = 360,000). AID 1224865, 2016; in the data active means activity change above about 30%, passing the limit was not always enough;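 further: controls were the assay level and a saturating level of protein; the project sought stronger binding though the title names inhibitors; some compounds called inactive have numbers as strong as hits; positive values seem to mean higher polarization but the record does not say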
MLL AF4-AF9 inh: inhibitors of AF4 peptide binding to AF9, primary screen, biochemical, AlphaScreen, biotin-AF4 peptide, FLAG-AF9, single point; actives 0.47% (n = 350,000); AID 651704, 2012; inhibition, % at 10 µM; Protein AF-9 (Homo sapiens), P42568;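 active means every replicate reaching a set inhibition limit, whatever the replicate mean, cut at about 25% in these data; inconclusive means mean inhibition reaches that limit but some replicates miss it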;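 further: 0% = plate neutral control median and 100% = total signal loss; the record names both 10 and 1 µM as test concentration; the first replicate is given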
Target sequence (P42568 whole entry, looked up): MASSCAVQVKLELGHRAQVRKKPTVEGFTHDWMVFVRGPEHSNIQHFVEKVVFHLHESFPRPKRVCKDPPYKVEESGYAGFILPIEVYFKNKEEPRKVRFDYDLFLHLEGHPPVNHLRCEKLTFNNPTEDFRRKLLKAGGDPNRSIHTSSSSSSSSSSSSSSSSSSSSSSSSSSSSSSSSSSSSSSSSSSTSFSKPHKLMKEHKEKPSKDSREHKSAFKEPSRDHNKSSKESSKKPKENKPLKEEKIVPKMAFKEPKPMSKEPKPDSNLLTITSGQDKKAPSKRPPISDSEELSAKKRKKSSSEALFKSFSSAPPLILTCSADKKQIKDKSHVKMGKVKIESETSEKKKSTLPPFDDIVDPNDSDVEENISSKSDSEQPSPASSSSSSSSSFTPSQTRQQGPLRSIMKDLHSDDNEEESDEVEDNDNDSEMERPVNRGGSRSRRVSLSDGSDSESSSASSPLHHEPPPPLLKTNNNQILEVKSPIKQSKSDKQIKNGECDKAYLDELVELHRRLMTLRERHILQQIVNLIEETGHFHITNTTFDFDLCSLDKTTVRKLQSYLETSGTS
E coli growth: E. coli growth inhibition, primary screen, OD600; Escherichia coli growth, 23 h; active compounds read low; AID 1053175, 2014; OD600 absorbance (test concentration not listed); actives 0.21% (n = 330,000);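 active means OD600 absorbance below the run mean of sample wells minus 3.6 SD, in any replicate, cut at about 0.56 in these data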;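 further: stock transfer was 300 nL into about 60 µL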
FGF22 binding: binders of human FGF22 protein, primary screen, FGF22 synaptogenesis inhibitor project, biophysical, thermal shift, single point | Fibroblast growth factor 22 (Homo sapiens), Q9HCT0 | AID 651658, 2012 | actives 1.5% (n = 340,000) | calls only at 9.99 µM | recombinant FGF22 thermal shift, SYPRO orange fluorescence; percent of sucrose octasulfate shift, DMSO zero;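 active means melting point raised past a set limit in the mean and every replicate; inconclusive means no clear call; three in four hits are not shown here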
Target sequence (Q9HCT0 whole entry, looked up): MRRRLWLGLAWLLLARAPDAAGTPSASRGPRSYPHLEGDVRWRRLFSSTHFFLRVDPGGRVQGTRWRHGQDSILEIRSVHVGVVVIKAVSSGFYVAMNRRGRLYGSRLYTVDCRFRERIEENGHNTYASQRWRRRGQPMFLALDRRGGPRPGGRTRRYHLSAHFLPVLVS
Ecoli rRNA inh OD600: second read-out of Ecoli rRNA inh, no call of its own (marks repeat the call); OD600 change, %; measured here: OD600 growth;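 optical density of the mix in the first replicate; 0 = DMSO median and -100 = no signal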
Ecoli rRNA inh RFP: second read-out of Ecoli rRNA inh, no call of its own (marks repeat the call); RFP signal change, %; measured here: RFP humanized mutant strains;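 first replicate; 0 = DMSO median and -100 = no signal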
* hit, by the source's call; i = inactive; ? = inconclusive; . = no result given; & = joins results of further samples. The list is partial (hit frequency here may not be typical).

no.	Molecule	ALR H2O2 inh	Ecoli rRNA inh	Ecoli rRNA inh OD600	Ecoli rRNA inh RFP	Vif A3G	HNF4A DNA FP	MLL AF4-AF9 inh	E coli growth	FGF22 binding
1	S=C(NCc1ccc2c(c1)OCO2)Nc1ccc(-c2nc3ccccc3[nH]2)cc1	-7	-14	-44	7.8	.	1.6	1.9	0.7	i
2	O=C(COC(=O)CC1CC2CCC1C2)Nc1ccccc1Cl (centres undefined)	.	-7	-17	4.4	.	1.2	-5.5	0.71	i
3	O=c1[nH]c2ccccc2c(O)c1-[n+]1ccccc1	0	15	5	5.9	67%	3.9	-4.1	0.72	i
4	CCCC1CCC(=NNC(=O)CNc2ccc(OC)cc2)CC1 (centres undefined)	47	9	0	-4.3	19%	3.7	3.3	0.66	i
5	COc1cc(C(=O)Nc2ccc3c(c2)CCN3C(C)=O)cc(OC)c1OC	.	2	1	-2.4	-12%	6.9	-1.8	0.71	i
6	COc1ccc(C(=O)NN2C(=O)C3C(c4ccccc4)C=CC(c4ccccc4)C3C2=O)cc1 (centres undefined)	.	.	.	.	1%	-2.6	.	0.69	.
7	Cc1ccccc1-c1ccc(C=Nc2c(C)n(C)n(-c3ccccc3)c2=O)o1	43	.	.	.	-4%	4.7	.	0.7	.
8	COC(=O)c1cc(NC(=O)CSc2nnc(CN3CCOCC3)n2C)ccc1Cl	-4	.	.	.	0%&-1%	0.1	.	0.78	.
9	CCCOc1ccc(/C(O)=C2/C(=O)C(=O)N(CCCn3ccnc3)C2c2ccc(C)o2)cc1 (centres undefined)	-5	-18*	2.2*	5.1*	.	-11	1.5	0.71	i
10	Cc1ccc(-n2ncc3c2CCCC3NC(=O)CSc2ccccn2)cc1C (centres undefined)	-5	-40	-47	-6.8	17%	0.2	-1.8	0.66	i
11	COc1nn(CC(=O)N2N=C(C(F)F)CC2(O)C(F)F)cc1[N+](=O)[O-] (centres undefined)	-10	.	.	.	.	0.8	.	0.71	.
12	O=C(NCc1ccc(F)cc1)c1cc2c(s1)CCCC2	23	.	.	.	6%	0.8	.	0.66	.
13	CO/C(N)=C(\C#N)N=Cc1ccccc1Cl	?	10	9	0.3	10%	2.0	-0.3	0.67	i
14	O=C(O)CC1=C(Nc2ccccc2)C(=O)N(c2ccccc2)C1c1ccc(Cl)cc1 (centres undefined)	97*	-9	4	4.9	24%	-3.8	7.7	0.71	i
15	CCCC#Cc1cnc2c(c1)C(=O)N([C@@H](C)CO)C[C@H](C)[C@@H](CN(C)S(=O)(=O)c1cccc(OC)c1)O2	.	-22	-53	17	.	.	3.1	.	i
16	CO[C@@H]1CN(C)C(=O)c2cc(NS(=O)(=O)c3cccc(F)c3)ccc2OC[C@H](C)NC[C@@H]1C	.	3	2	-3.0	.	.	-4.1	.	i
17	CC(C)Cn1c(-c2ccccc2F)n[nH]c1=S	5	.	.	.	0%	1.9	.	0.7	.
18	CCn1cc(C(=O)N[C@@H](C)C(=O)OC)c(=O)c2cc3c(cc21)OCO3	3	-32	-53	3.8	13%	4.1	-33	0.084*	i
19	COc1ccc(C(=O)OC(C)C(=O)NC2CCCc3ccccc32)cc1OC (centres undefined)	.	16	16	0.4	-8%	1.7	0.8	0.71	i
20	Cc1ccccc1CN(c1ccc(C(=O)NCC2CCCO2)cc1)S(C)(=O)=O (centres undefined)	-5	.	.	.	.	-0.7	.	0.67	.
21	Cc1cccnc1NC(=O)Nc1ccc(Cl)cc1	-14	10	17	-0.8	.	1.0	-1.0	0.66	i
22	CCOC(=O)C(=Cc1ccc(-n2cncn2)cc1)C(=O)OCC	52	7	10	5.5	-9%	3.2	-2.5	0.67	i
23	COc1cc([N+](=O)[O-])ccc1NC(=O)CSc1nnc(C)c(C)n1	.	-5	13	8.5	24%	0.3	-0.7	0.65	i
24	NC(=O)C(c1ccccc1)C1CCCCC1 (centres undefined)	-19	.	.	.	?	0.8	.	0.72	.
25	O=C(CCc1nnc(-c2ccsc2)o1)N1CCc2c(Cl)cccc2C1	0	-29	-35	-0.6	3%	2.3	-5.7	0.68	i
26	COC(=O)CSc1nc(N)c2c3c(sc2n1)CCCC3	-5	.	.	.	9%	-2.0	.	0.65	.
27	O=C(O)CN1C(=O)S/C(=C\c2cccnc2)C1=O	.	8	7	-4.5	?	-1.6	-43	0.69	i
28	O=C(COC(=O)C1=NN(c2ccccc2)C(=O)CC1)Nc1nc(-c2ccc(F)cc2)cs1	-10	-5	3	-1.7	-9%	2.9	-2.7	0.65	i
29	CC(O)C(NS(=O)(=O)c1ccc2ccccc2c1)C(=O)OCC(=O)Nc1ccccc1OC(F)F (centres undefined)	.	-1	-8	1.9	.	-3.1	1.2	0.66	i
30	COc1ccc(NC(=O)c2ccc3c(c2)C(=O)N(CC2CCCO2)C3=O)cc1 (centres undefined)	-1	2	4	-2.0	.	3.5	0.5	0.68	i
31	CC1(C)CC[C@]2(C(=O)O)CC[C@]3(C)C(=CCC4[C@]56CC[C@@](O)(OC5)C(C)(C)C6CC[C@]43C)C2C1 (some centres undefined)	.	.	.	.	.	1.6	0.0	.	i
32	Cc1cnc(N=Nc2ccccc2)[nH]1	.	17	13	2.0	-8%	-1.4	2.1	0.72	i
33	COC(=O)C(Cc1ccc(OC(=O)c2ccccc2C)cc1)N1Cc2ccccc2C1=O (centres undefined)	-13	.	.	.	5%	-3.2	.	0.81	.
34	COc1ccc(OC)c(S(=O)(=O)Nc2cccc(F)c2)c1	-14	.	.	.	-3%	-0.1	.	0.66	.
35	Cc1cc(SCC(=O)NCCC2=CCCCC2)nc2ccccc12	41	-34	-73	-0.6	.	-2.7	-44	0.67	i
36	CC(=O)N(C(C)=O)c1cccc2c(N(C(C)=O)C(C)=O)cccc12	1	.	.	.	6%	-0.8	.	0.71	.
37	O=c1cc(Cl)c2ccccc2n1-c1ccccc1	3	2	2	0.2	-9%	1.7	1.8	0.67	i
38	Cc1noc(C)c1COc1ccccc1C(=O)N(C)CC(=O)Nc1ccc(Cl)c(Cl)c1	-8	-14	-32	-4.6	.	-2.2	-15	0.62	i
39	C/C(=N\Nc1ccc([N+](=O)[O-])cc1[N+](=O)[O-])C(C)(C)C(C(=O)O)C(=O)O	83*	3	13	3.5	.	-1.6	-30	.	i
40	O=C(Nc1cc(C(F)(F)F)ccc1Cl)C(Sc1nnc(-c2cccs2)o1)c1ccccc1 (centres undefined)	-1	.	.	.	.	-1.1	.	0.72	.

Overlap with the part before: 4 entries; new compounds follow.
Order of values: ALR H2O2 inh	Ecoli rRNA inh	Ecoli rRNA inh OD600	Ecoli rRNA inh RFP	Vif A3G	HNF4A DNA FP	MLL AF4-AF9 inh	E coli growth	FGF22 binding
37	O=c1cc(Cl)c2ccccc2n1-c1ccccc1
    3	2	2	0.2	-9%	1.7	1.8	0.67	i
38	Cc1noc(C)c1COc1ccccc1C(=O)N(C)CC(=O)Nc1ccc(Cl)c(Cl)c1
    -8	-14	-32	-4.6	.	-2.2	-15	0.62	i
39	C/C(=N\Nc1ccc([N+](=O)[O-])cc1[N+](=O)[O-])C(C)(C)C(C(=O)O)C(=O)O
    83*	3	13	3.5	.	-1.6	-30	.	i
40	O=C(Nc1cc(C(F)(F)F)ccc1Cl)C(Sc1nnc(-c2cccs2)o1)c1ccccc1 (centres undefined)
    -1	.	.	.	.	-1.1	.	0.72	.
41	COc1ccccc1C1CN(c2ccc(F)cc2F)N=C1c1cccs1 (centres undefined)
    -8	.	.	.	-2%	0.4	.	0.7	.
42	O=C(C[C@@H]1CC[C@@H]2[C@H](COC[C@H](O)CN2C(=O)Nc2ccc(F)cc2)O1)NCCCN1CCOCC1
    .	4	33	-4.9	.	.	-18	.	i
43	Cc1ccc(Cl)cc1NC(=O)CC(O)(C(F)(F)F)C(F)(F)F
    -10	.	.	.	-2%	1.6	.	0.58	.
44	O=C(NCC1CC1)NC(=O)c1ccccc1F
    .	-1	3	-1.1	.	2.4	-4.6	.	i
45	COc1ccc(Nc2nc(N3CCCCC3)nc(N3CCCCC3)n2)c(OC)c1
    -2	.	.	.	-11%	-1.5	.	0.71	.
46	CC(C)=C1C2CCC1C1C(=O)N(c3nc(-c4ccc(C(C)C)cc4)c(C)s3)C(=O)C21 (centres undefined)
    -2	.	.	.	-1%	-0.5	.	0.76	.
47	CCCN1C(=O)c2cc(C(=O)NC3CCCCCC3)ccc2C1O (centres undefined)
    96*	-2	3	5.0	2%	-0.8	-0.3	0.73	i
48	COc1cc(/C=C/C(=O)OC[C@H]2O[C@H](OC3(CO)OC(CO)C(O)C3O)[C@H](O)[C@@H](O)[C@@H]2O)ccc1O (some centres undefined)
    ?	9	4	-5.0	.	0.5	-3.5	.	i
49	Cc1ccccc1CSc1nnc(C)c(=O)[nH]1
    91*	-8	-5	-3.6	-4%	-1.1	5.3	0.7	i
50	C/C(=N/NC(=O)c1ccco1)c1ccc(NC(=O)c2ccc(Br)o2)cc1
    -8	-2	2	5.1	.	8.8	-3.6	.	i
51	Cc1nn(-c2cccc(Cl)c2)c2c1C(c1ccncc1)C(C#N)=C(N)O2 (centres undefined)
    33	.	.	.	21%	-1.7	.	0.76	.
52	Cc1ccc(NC(=O)CN2C(=O)S/C(=C\c3ccccn3)C2=O)cc1C
    -13	12	6	-0.4	.	3.6	-1.2	0.64	i
53	CC(C)(C)C1=Nn2c(nnc2C2CCCCC2)SC1
    0	.	.	.	4%	3.6	.	0.68	.
54	O=C(NCc1ccccn1)[C@@H]1[C@@H](CO)[C@@H]2Cn3c(cccc3=O)[C@H]1N2CC1CCCCC1
    .	-4	5	-4.4	.	.	0.5	.	i
55	COc1ccc(-c2csc(/C(C#N)=C\c3ccc(OC)c([N+](=O)[O-])c3)n2)cc1
    0	.	.	.	0%	15	.	0.71	.
56	Cc1ccc(OCC(=O)Nc2c3c(nn2C(C)(C)C)CS(=O)(=O)C3)cc1
    -8	7	15	0.1	.	0.7	-0.4	0.73	i
57	Cc1ccc2c(CC(=O)NCC(C)(C)N3CCOCC3)coc2c1
    -2	1	-14	-0.7	.	-0.7	1.7	0.69	i
58	CCCNC(=O)N(C)C[C@@H]1Oc2cc(C#Cc3ccccn3)ccc2S(=O)(=O)N([C@H](C)CO)C[C@@H]1C
    .	-1	6	2.0	.	.	-2.2	.	i
